gsp ag: qHTS for Agonist of gsp, the Etiologic Mutation Responsible for Fibrous Dysplasia/McCune-Albright Syndrome: qHTS; 0.13% of 340,000 active; gsp mutant cells, cAMP HTRF, 30 min; control for the full effect not named in the record; Potency, µM (series often up to 76.9 µM), inactives show at the highest dose activation (cAMP increase), usual class: activators; AID 624287, 2012; active = well fitted activation curve with a large enough effect; inconclusive = small, poorly fitted or top-dose-only effect, or another doubt; inactive = no such curve, though single readings can be large or run the other way; cell line not stated here;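 further: phosphodiesterase inhibitor Ro 20-1724 added with compounds to block cAMP breakdown; potency means the concentration at half of the fitted maximal effect; nearly all actives have a fitted effect of over 60% in size; about a fifth of the inactives were tested at one dose only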
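Cells in DMEM/10% FBS with G418 were pretreated with compounds in DMSO plus […] (300 uM stock) for 30 min at 37C. cAMP was measured by HTRF (cAMP-d2 plus anti-cAMP antibody-K) after 30 min at room temperature.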
ClpP mod: qHTS Assay for Activators of ClpP; ATP-dependent Clp protease proteolytic subunit (Bacillus subtilis (strain 168)), P80244; purified B. subtilis ClpP, FRET peptide cleavage, 20 min; Potency, µM (titrated, usually from 57.5 µM), inactives show top-dose activity change, negative = active; 1.9% of 340,000 active; active = well fitted falling curve with a large enough effect; inconclusive = small, poorly fitted or top-dose-only effect; inactive = no such curve, though single readings can be large or run the other way; further: potency means the concentration at half of the fitted maximal effect; the source files actives as falling curves though it sought activators and does not explain the sign; nearly all actives have a fitted effect of over 65% in size; many hits overshoot -100%
Target sequence (P80244 whole entry, looked up): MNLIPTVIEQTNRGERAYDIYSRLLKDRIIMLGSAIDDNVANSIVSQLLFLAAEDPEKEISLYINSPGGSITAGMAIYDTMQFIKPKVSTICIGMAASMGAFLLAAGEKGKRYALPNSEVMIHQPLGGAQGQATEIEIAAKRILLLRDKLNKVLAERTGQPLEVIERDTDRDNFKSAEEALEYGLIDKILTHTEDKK
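ClpP 10 microg/mL final, pH 8 Tris/KCl buffer with BSA, glycerol, Tween-20; compound pinned in; FRET-FV substrate; RT 20 min; Ex320/Em430; ΔFRET vs ADEP 5.8 microM, DMSO, no enzyme.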
D2 PAM: Beta-Arrestin HTS for Positive Allosteric Modulators of the Human D2 Dopamine Receptor: Potentiators. D(2) dopamine receptor (Homo sapiens), P14416. DiscoveRx D2 beta-arrestin cells, luminescence, 90 min; 100% = 57 uM dopamine signal. potentiation, % (concentration not given with the values). 0.23% of 360,000 active. AID 624464, 2012; active = potentiation of 50% or more; inconclusive = 30% to 50%; inactive = 30% or less;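 further: compound concentration not given in the record; tested on top of an EC20 dose of dopamine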
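D2 cells co-treated with compound plus 50 nM dopamine (EC20) for 90 min at 37 deg C to detect potentiation. Beta-arrestin recruitment was read as enzyme-fragment luminescence after 1 h at ambient temperature. Full response was set by 57 uM dopamine.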
Sfp inh: qHTS Assay for Inhibitors of Bacillus subtilis Sfp phosphopantetheinyl transferase (PPTase). 4'-phosphopantetheinyl transferase ffp (Bacillus subtilis), Q9F4F7. Biochemical Sfp PPTase activity, qHTS. Potency, µM, for inactives: max response, negative = inhibition, actives largely listed as inhibitors. 3.5% of 310,000 active. AID 1490, 2009; active means well fitted inhibition curve with a large enough effect; inconclusive means small, poorly fitted or top-dose-only effect, or another doubt; inactive means no such curve, though single readings can be large or run the other way;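 further: the enzyme is Sfp with the accession as filed and its product quenches rhodamine fluorescence; potency means the concentration at half of the fitted maximal effect; 0% = enzyme reaction without inhibitor and -100% = no enzyme wells; top concentration of the series not given in the record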
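After 15 min at room temperature with compound, 15 nM Sfp received 5 uM rhodamine-CoA plus 12.5 uM BHQ-2-ybbR (50 mM Hepes pH 7.6, 10 mM MgCl2). Rate came from the fluorescence difference over 30 min, ex 525/em 598 nm.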
gsp antagonist: qHTS for Antagonists of gsp, the Etiologic Mutation Responsible for Fibrous Dysplasia/McCune-Albright Syndrome: qHTS; Potency, µM (titrated, usually from 76.9 µM), inactives show at the highest dose activity change, negative = inhibition, most hits filed as inhibitors; gsp-mutant cells, cAMP HTRF, 30 min; control for the full effect not named in the record; 0.4% of 340,000 active; active = falling curve of any shape with a large fitted effect; inconclusive = falling curve, mostly with a smaller effect; inactive = flat or rising curve; cell line not stated here;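 further: intracellular cAMP measured with PDE inhibitor Ro 20-1724 present during compound exposure; potency means the concentration at half of the fitted maximal effect; on the % scale 0 is the no-effect control and ±100 the full control effect; nearly all actives have a fitted effect of over 65% in size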
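Cells in G418 medium, seeded 16-24 h, 37C; buffer exchange to DPBS + 1 mM CaCl2, 0.5 mM MgCl2, 0.05% BSA; cpds in DMSO + […] (300 uM stock), 30 min 37C; HTRF cAMP detection.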
Menin-MLL FL inh: qHTS Assay for Inhibitors Targeting the Menin-MLL Interaction in MLL Related Leukemias: Competition With Fluorescein Labeled MLL-derived Peptide; FP activity change, % at 61.4 µM; Fluorescence polarization, fluorescein-MLL peptide displacement from menin; 290,000 tested, under 10 active; inconclusive = falling polarisation curve, or a change in total fluorescence; inactive = total fluorescence flat and polarisation flat or rising; no compound was filed as active; the % refers to the polarisation; negative = inhibition;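 further: % of control where 0% means no effect; inhibitors lower the polarisation; unlabelled MLL peptide was the positive control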
TRPV1 PAM: HTS Assay for Compounds that Act as Potentiators of the Vanilloid Receptor 1; TRPV1-expressing cells, Fluo-8 calcium influx, capsaicin EC20 potentiation; host cell line not named in the record; control for the full effect not named in the record; potentiation, % at 8.33 µM; 0.02% of 320,000 active; active means potentiation above 80%; inconclusive means 30% to 80%; inactive means below 30%; further: 0% is about no effect
Target sequence (Q8NER1 whole entry, looked up): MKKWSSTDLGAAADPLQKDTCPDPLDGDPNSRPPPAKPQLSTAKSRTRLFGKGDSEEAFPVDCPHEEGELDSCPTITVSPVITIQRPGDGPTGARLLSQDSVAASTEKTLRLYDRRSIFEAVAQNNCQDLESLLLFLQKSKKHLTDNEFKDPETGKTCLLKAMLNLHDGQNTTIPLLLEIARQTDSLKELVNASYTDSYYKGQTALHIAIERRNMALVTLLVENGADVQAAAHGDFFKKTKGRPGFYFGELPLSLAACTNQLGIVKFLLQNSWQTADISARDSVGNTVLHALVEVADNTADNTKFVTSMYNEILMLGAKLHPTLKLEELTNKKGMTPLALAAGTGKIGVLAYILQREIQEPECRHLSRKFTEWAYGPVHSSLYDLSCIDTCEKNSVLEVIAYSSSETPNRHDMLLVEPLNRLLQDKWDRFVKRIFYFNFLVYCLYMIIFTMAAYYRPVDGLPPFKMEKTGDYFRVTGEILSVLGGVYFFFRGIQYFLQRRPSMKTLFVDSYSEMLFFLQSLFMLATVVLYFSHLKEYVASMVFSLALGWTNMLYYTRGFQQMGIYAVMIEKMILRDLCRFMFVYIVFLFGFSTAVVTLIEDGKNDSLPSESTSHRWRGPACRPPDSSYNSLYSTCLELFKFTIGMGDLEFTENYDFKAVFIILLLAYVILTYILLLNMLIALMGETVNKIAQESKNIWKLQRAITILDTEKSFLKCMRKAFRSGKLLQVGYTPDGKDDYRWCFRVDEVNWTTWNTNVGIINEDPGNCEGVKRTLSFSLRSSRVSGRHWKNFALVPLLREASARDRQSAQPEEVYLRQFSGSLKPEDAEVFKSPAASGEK
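Cells expressing TRPV1 were dye-loaded with Fluo-8 and read kinetically: 10 s baseline, 3 min after compound (agonist portion), then 2 min after EC20 capsaicin (allosteric enhancer portion). Calcium-bound dye fluorescence at 480/520 nm.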
* marks the source's active call; other numbers are inactive results; u = inconclusive; x = no result given; & = joins results of further samples; [ ] = dose if it differs, or a comment.

SMILES	gsp ag	ClpP mod	D2 PAM	Sfp inh	gsp antagonist	Menin-MLL FL inh	TRPV1 PAM
COc1ccc(S(=O)(=O)NCCOc2ccccc2)cc1F	-2%	0.4%	-15	16%	4%	0.8	-6
COc1ccc(C2C(C(=O)OC(C)C)=C(C)N=c3s/c(=C\c4cccs4)c(=O)n32)cc1 (stereo unspecified)	-28%	-0.7%	7	-12%	-8%	-13	-26
O=C(Cc1cccs1)N1CCN(S(=O)(=O)c2cc(Cl)ccc2Cl)CC1	10%	-2.3%	3	x	7%	x	5
CCCOC(=O)c1ccc(NC(=O)CCC(=O)OCC)cc1	-40%[inhibitor]	0.3%	3	2%	0%	4.8	-14
Cc1cccc(NC(=O)c2nc[nH]c2C(=O)Nc2cccc(C)c2)c1	-1%[15.4 µM]	x	-4	18%	4%	0.1	-8
COc1ccc([C@H]2N[C@]3(CCCN(Cc4cccn4C)C3=O)[C@H]3C(=O)N(C)C(=O)[C@@H]23)cc1	u	0.6%	0	x	x	x	x
CCN1C(=O)[C@@H]2[C@@H](c3ccc(-c4ccc(Cl)c(Cl)c4)c(OC)c3)N3CCCC[C@@]3(C(=O)OC)[C@@H]2C1=O	x	-18%	-7	x	2%	x	21
COCCNC(=S)N1CCN(c2nc(-c3ccc(F)cc3)cs2)CC1	6%	2.2%	-2	-4%	u	-0.4	1
O=C1[C@@H]2[C@H](C(=O)N1n1cnnc1)[C@H]1C=C[C@@H]2C1	-16%	-0.6%	-12	9%	0%	2.8	0
Cc1cc(C)nc(NS(=O)(=O)c2ccc(NC(=S)NC(=O)C(C)(C)C)cc2)n1	6%	-4.7%	0	-16%	-26%	0.4	3
CN(C)C(CNC(=O)CCNS(=O)(=O)c1ccccc1C(F)(F)F)c1ccccc1 (stereo unspecified)	u	-2.1%	-4	x	5%	x	4
Cc1c(N(C)CS(=O)(=O)O)c(=O)n(-c2ccccc2)n1C	x	-0.7%	-10	14%&13%	-1%	2.7	-1
Cc1ccc(S(=O)(=O)NN=Cc2ccco2)cc1	-8%	-1.5%	-3	x	x	x	x
Cc1cc(C)cc(N(CCC#N)C(=O)CSc2nc3ccccc3c(=O)[nH]2)c1	16%	x	-11	x	2%	x	x
O=C(Nc1ccc(Cl)c(C(F)(F)F)c1)c1ccncc1	-4%	x	-7	12%	-9%	0.8	1
O=C1C(=O)N(c2ccccn2)C(c2cccc([N+](=O)[O-])c2)/C1=C(/O)c1ccc(Br)cc1 (stereo unspecified)	-8%	-0.9%	-3	15%	1%	-1.9	9
Cc1nn(-c2ccccc2)c(N)c1C1(O)C(=O)N(C(C)C)c2ccccc21 (stereo unspecified)	-28%	0.1%	-7	-4%	-1%	1.8	1
O=S(=O)(c1ccccc1)N1CCN=C1SCc1cccc(Cl)c1	2%	0.1%	-5	0%	-2%	10	5
O=C(CNC(c1ccccc1)c1ccccc1)Nc1ccccc1F	6%	x	-10	5%	-10%	x	0
Cc1ccc(Cn2c(C3CCCN3c3nc(-c4ccc(F)cc4)cs3)nc3cc(Cl)c(Cl)cc32)cc1 (stereo unspecified)	-10%	-1.9%	-6	x	6%	x	x
COc1ccc(/C=C/C(=O)OCC(=O)N2c3ccccc3CC2C)cc1 (stereo unspecified)	-22%	-3.3%	7	x	x	x	x
CCOC(=O)c1cnc2c(C(=O)OC)cccc2c1NCc1cccnc1	u	-0.3%	-3	1%	-4%	-1.4	3
CN(Cc1ccccc1)S(=O)(=O)c1ccc(Cl)c(C(=O)NCCCN2CCCC2=O)c1	31%[15.4 µM]	x	1	x	-2%	x	x
CN(C)c1ccc(/C=N/NC(=O)CNC(=O)c2ccncc2)cc1	18%	3.6%	-5	12%	u	2.6	3
O=C1CCCc2c1nc(-c1ccc(F)cc1)n2O	-5%[15.4 µM]	0.6%	-8	6%	11%	-0.3	-1

Three compounds out of the list, sorted by heavy-atom count, smallest number first.
SMILES	gsp ag	ClpP mod	D2 PAM	Sfp inh	gsp antagonist	Menin-MLL FL inh	TRPV1 PAM
COc1ccc(S(=O)(=O)NCCOc2ccccc2)cc1F	-2%	0.4%	-15	16%	4%	0.8	-6
O=C(CNC(c1ccccc1)c1ccccc1)Nc1ccccc1F	6%	x	-10	5%	-10%	x	0
CN(C)C(CNC(=O)CCNS(=O)(=O)c1ccccc1C(F)(F)F)c1ccccc1 (stereo unspecified)	u	-2.1%	-4	x	5%	x	4

Quoted at random: six entries already listed
SMILES	gsp ag	ClpP mod	D2 PAM	Sfp inh	gsp antagonist	Menin-MLL FL inh	TRPV1 PAM
CCN1C(=O)[C@@H]2[C@@H](c3ccc(-c4ccc(Cl)c(Cl)c4)c(OC)c3)N3CCCC[C@@]3(C(=O)OC)[C@@H]2C1=O	x	-18%	-7	x	2%	x	21
Cc1cccc(NC(=O)c2nc[nH]c2C(=O)Nc2cccc(C)c2)c1	-1%[15.4 µM]	x	-4	18%	4%	0.1	-8
CCOC(=O)c1cnc2c(C(=O)OC)cccc2c1NCc1cccnc1	u	-0.3%	-3	1%	-4%	-1.4	3
COc1ccc(S(=O)(=O)NCCOc2ccccc2)cc1F	-2%	0.4%	-15	16%	4%	0.8	-6
CCCOC(=O)c1ccc(NC(=O)CCC(=O)OCC)cc1	-40%[inhibitor]	0.3%	3	2%	0%	4.8	-14
Cc1cc(C)cc(N(CCC#N)C(=O)CSc2nc3ccccc3c(=O)[nH]2)c1	16%	x	-11	x	2%	x	x

Continued:
SMILES	gsp ag	ClpP mod	D2 PAM	Sfp inh	gsp antagonist	Menin-MLL FL inh	TRPV1 PAM
O=C(c1ccccc1)N1CCN(C(=O)c2ccccc2)C1c1ccccc1	-15%	1.9%	-16	11%	-6%	4.2	5
Cc1c(Cl)cn2c(=O)cc(CN(C)Cc3nc4ccccc4c(=O)[nH]3)nc2c1Cl	x	x	x	-8%	x	-1.9	1
CCOC(=O)C1CCN(Cc2ccc(F)cc2F)CC1	u	-1.2%	-13	-13%	7%	-1.3	6
CCN(CC)C(=O)CSc1nnc(-c2ccc(F)cc2)n1N	16%	2.3%	-4	11%	12%	5.2	-10
CC(=O)Nc1ccc(NC(=O)CN(C)S(=O)(=O)c2ccc3nc(C)sc3c2)cc1	-1%	-0.4%	-1	9%	3%	1.5	1
CC1(c2ccco2)NC(=O)NC1=O (stereo unspecified)	-1%	-0.3%	-5	11%	-13%	-1.1	9
Cc1nc2ccccc2n1/N=C/c1cccnc1	-47%[inhibitor]	-0.4%	-10	34%[activator]	-1%	5.3	-4
COc1ccc(-c2noc(CSc3nc(-c4ccccc4)cc(=O)[nH]3)n2)cc1	-6%	0.9%	-7	u	-12%	0.4	4
CC(C)N1CCc2c(sc(NC(=O)c3ccc(S(=O)(=O)N(C)CC4CCCO4)cc3)c2C(N)=O)C1 (stereo unspecified)	10%	1.9%	-6	0%	2%	x	8
CC(=O)Nc1ccc(OCC(=O)N2CCC(Cc3ccccc3)CC2)cc1	26%[15.4 µM]	x	2	-7%	-9%	2.2	0
Cc1c(C(=O)c2ccc(N(C)C)cc2)c2ccccn2c1CCC#N	4%[15.4 µM]	x	-1	-3%	-32%	3.4	0
COc1ccc(N2C(=O)CN=C2Nc2cccc(C)c2C)cc1OC	2%	-5.0%	7	6%	8%	3.9	6
COc1cc(C(C[N+](=O)[O-])c2c(C)[nH]c3ccccc23)cc(OC)c1OC (stereo unspecified)	25%	1.1%	-4	-3%	13%	0.8	4
O=C(COC(=O)Cc1ccc(Br)cc1)NC1CC1	-14%	-3.1%	-10	x	3%	x	-1
O=C(/C=C\c1ccc(-c2ccccc2)o1)c1ccccc1	-28%	-28%	-14	11µM*	-1%	u	-12
COc1cc(/C=C\C(=O)O)cc(S(=O)(=O)N2CCCCCC2)c1OC	-6%	-7.6%	-11	10%	-14%	-5.6	6
Cc1cccc(C)c1-n1c(C)cc(/C=N/NC(=O)c2ccncc2)c1C	-6%	-0.2%	0	-23%	15%	-1.4	-7
Cc1ccc(C(=O)Oc2ccccc2C(=O)N2CCOCC2)cc1	5%	0.1%	-5	2%	-5%	-0.3	2
C/C(=C1/SC(N2CCCC2)=NC1=O)c1ccc(Br)cc1	0%	0.6%	-5	8%	u	1.4	-6
O=C1CN(C(=O)c2ccccc2Cl)c2ccccc2N1	-1%[15.4 µM]	-1.3%	-7	16%	8%	4.7	3
COc1ccc(-c2nc(C#N)c(NCCCN(C)C)o2)cc1OC	-3%	-5.8%	-5	5%	1%	-0.9	-15
C/C(=N\NC(N)=O)c1cc(Cl)cc(Cl)c1O	1%	x	-7	14%	2%	1.1	1
CC12CC3(C)CC(C)(C1)CC(C(=O)NCC(=O)O)(C2)C3	15%[15.4 µM]	x	-3	u	5%	1.9	6
CSCCC(=O)N1CCC(n2nccc2NC(=O)CCc2ccccc2)CC1	-43%[inhibitor]	-0.7%	15	5%	15%	x	8
CCOC(=O)CC(=O)Nc1ccsc1C(N)=O	-5%[15.4 µM]	x	-6	4%	3%	0.6	4
O=C(NCCNC(=O)c1cccnc1)c1ccc(Br)cc1	28%	1.5%	-4	9%	8%	4.7	0
O=C(c1cccs1)N1CCN(c2nnc(-c3ccccc3)c3ccccc23)CC1	-2%[15.4 µM]	x	-10	2%	-49%	-1.9	9
N#CCSc1n[nH]c2nc3c(c(=O)n12)C1(CCCC1)Cc1ccccc1-3	7%	16µM*	11	89µM*	-20%	0.5	u
CSCCC(NC(=O)c1ccccc1Br)C(=O)N1CCCCCCC1 (stereo unspecified)	1%	0.7%	2	x	5%	x	6
